nsP2pro inh = CHIKV nsP2 protease inhibition, primary qHTS; Potency, µM (highest dose often 24.9 µM), without a hit: at the top dose activity change, negative = inhibition, usual class: inhibitors; 1.1% of 31,000 active; FRET peptide cleavage, nsP2pro, fluorescence 1 h; AID 1964107; active means well fitted inhibition curve with a large enough effect; inconclusive means small, poorly fitted or top-dose-only effect; inactive means no such curve, though single readings can be large or run the other way; further: nearly all actives have a fitted effect of over 60% in size; a reference inhibitor and vehicle were the controls
* marks the source's active call; other numbers are inactive results; i = inactive; u = inconclusive; & = joins results of further samples; [ ] = remark or other dose. On the % scale 0 is the no-effect control and ±100 the full control effect; potency means the concentration at half of the fitted maximal effect. Only part of the results is shown, so the mix of outcomes need not match the whole.

SMILES | nsP2pro inh
CC1(C)CC(C(=O)Nc2ccc([S+](=O)([O-])Nc3nccs3)cc2)C1 | -6%
COc1ccc(NC(=O)c2cc(-c3ccc(F)cc3)no2)cc1OC | -21%
COc1ccccc1CNC(=O)Cn1c(=O)oc2cc(S(=O)(=O)N3CCC(C)CC3)ccc21 | -14%
COC(=O)C(CC1(OC(=O)C(C)C)c2ccccc2N2C(=O)C(C)(C)N(O)C21)n1cnc2ccccc2c1=O (centres undefined) | -12%[10 µM]
C#CCN(C)C(=O)C[C@@H]1c2nc(NC(=O)CCCCC)sc2C[C@@H]2[C@](C)(CO)[C@H](O)CC[C@]21C | i
O=C(Nc1ccccc1)N1CCC(Cc2cnc3ccccc3c2)CC1 | -2%
COc1ccc(N2C(=O)CSC23C(=O)N(CC(=O)NC2CCCCC2)c2ccccc23)cc1 (centres undefined) | -15%
CCc1ccccc1NS(=O)(=O)c1ccc2c(c1)CC(=O)N2 | -15%
CC1=CC2/C=C(\C)CCC(O)C3OC(C)(C)OC3CC(=O)OC23C(=O)NC(CC(C)C)C3C1C (centres undefined) | -7%[10 µM]
CN1CCN(C(=O)N2CCC3(CCCN(C4CCOCC4)C3=O)C2)CC1 (centres undefined) | -3%
CCN(Cc1ccccc1)C(=O)Cn1c(=O)n(C)c2cnc(-c3ccccc3)nc21 | -7%
Cc1cc(C)n(CC(=O)N2CCCCCCNC(=O)[C@@H]3CCCC[C@@H]32)n1 | 5%
COC(=O)c1cc2occc2n1Cc1nc(-c2ccccc2F)oc1C | -20%
Cc1cc(Nc2nc(N[C@@H](C)c3ccc(F)cc3)c(C#N)cc2F)n[nH]1 | 26%&127%
CCCCc1c(C)nc2c(-c3ccc(OC)cc3)c(C)[nH]n2c1=O | -22%
CCc1ccc(S(=O)(=O)c2nnn3c2nc(NCCC(C)C)c2cc(Cl)ccc23)cc1 | -17%
C=C1CC[C@H]2[C@@](C)(CCC(OC3OC(CO)C(O)C(O)C3O)[C@@]2(C)CO)C1C(=O)CC1=CCOC1=O (some centres undefined) | 11%[10 µM]
Cc1noc(C)c1-c1ccc2ncnc(NCc3ccccc3C(F)(F)F)c2c1 | -9%
CC1=C(C(=O)Nc2cc3cn[nH]c3cc2F)C(c2ccc(C(F)(F)F)cc2)CC(=O)N1 (centres undefined) | u
CCn1c(CNC(=O)c2ccc(OC)cc2)nnc1SCC(=O)Nc1ccc(C)cc1 | -7%
CN1C[C@@H]2CC[C@H](CC1=O)N2C(=O)c1cnn2cc(CCO)cnc12 | i
NC(=O)C1CCN(c2nc(-c3ccc(OCc4ccccc4)cc3)cs2)CC1 | i
COCCN(Cc1cccs1)S(=O)(=O)c1cc(-c2cc(C)no2)ccc1C | -5%
CN(C)Cc1nnc(C2CC(NC(=O)Cc3noc4ccccc34)C2)n1C (centres undefined) | 0%
Cc1cc(NC(=O)c2ccc([S+](=O)([O-])NCc3ccc(Cl)c(Cl)c3)cc2)no1 | -2%
COc1ccccc1C(=O)N1CCC2(C1)NC(=O)c1ccccc1CO2 (centres undefined) | 0%
C=CC(=O)Nc1cccc(Oc2nc(Nc3ccc(N4CCN(C)CC4)cc3OC)ncc2Cl)c1 | 15%
Cn1c2cc(B(O)O)sc2c2cnn(Cc3c(F)cccc3F)c(=O)c21 | i
COc1cc2c(cc1O)C1(C)CCC(O)C(C)(C)C1CC2=O (centres undefined) | 12%
C/C(=C\CCC(C(=O)O)C1CCC2(C)C3=C(CCC12C)C1(C)CCC(=O)C(C)(C)C1CC3)C(=O)O (centres undefined) | -6%[10 µM]

Sorted by molecular weight (low to high): some entries from above
SMILES | nsP2pro inh
CCCCc1c(C)nc2c(-c3ccc(OC)cc3)c(C)[nH]n2c1=O | -22%
CN1C[C@@H]2CC[C@H](CC1=O)N2C(=O)c1cnn2cc(CCO)cnc12 | i
COc1ccccc1C(=O)N1CCC2(C1)NC(=O)c1ccccc1CO2 (centres undefined) | 0%
CN(C)Cc1nnc(C2CC(NC(=O)Cc3noc4ccccc34)C2)n1C (centres undefined) | 0%
Cn1c2cc(B(O)O)sc2c2cnn(Cc3c(F)cccc3F)c(=O)c21 | i
NC(=O)C1CCN(c2nc(-c3ccc(OCc4ccccc4)cc3)cs2)CC1 | i
Cc1noc(C)c1-c1ccc2ncnc(NCc3ccccc3C(F)(F)F)c2c1 | -9%
COCCN(Cc1cccs1)S(=O)(=O)c1cc(-c2cc(C)no2)ccc1C | -5%
CCn1c(CNC(=O)c2ccc(OC)cc2)nnc1SCC(=O)Nc1ccc(C)cc1 | -7%
CCc1ccc(S(=O)(=O)c2nnn3c2nc(NCCC(C)C)c2cc(Cl)ccc23)cc1 | -17%
C/C(=C\CCC(C(=O)O)C1CCC2(C)C3=C(CCC12C)C1(C)CCC(=O)C(C)(C)C1CC3)C(=O)O (centres undefined) | -6%[10 µM]
C=CC(=O)Nc1cccc(Oc2nc(Nc3ccc(N4CCN(C)CC4)cc3OC)ncc2Cl)c1 | 15%
C=C1CC[C@H]2[C@@](C)(CCC(OC3OC(CO)C(O)C(O)C3O)[C@@]2(C)CO)C1C(=O)CC1=CCOC1=O (some centres undefined) | 11%[10 µM]

Later entries.
SMILES | nsP2pro inh
C[C@@H]1C[C@@H](O)[C@]2(O)O[C@@H]3C[C@@]4(C=O)C(CC[C@@H]5C4CC[C@]4(C)[C@@](O)(C6=CC(=O)OC6)CC[C@]54O)C[C@H]3OC2O1 (some centres undefined) | 18%[10 µM]
Cc1ccc(CNC(=O)c2cc3sccc3n2Cc2ccc(F)cc2)cc1 | 14%
CCN(CC)c1ccc(NC(=O)Nc2ccc(C(C)=O)cc2)cc1 | i
CC(NC(=O)C1=Cc2ccccc2OC1)c1ccccc1 (centres undefined) | 391%[activator]
CCNC(=O)[C@@H]1C[C@H](N)CN1C(=O)c1cnc(-c2cccnc2)nc1C | i
COc1c(C(C)C)cc2c(c1O)[C@@]1(C(=O)O)CCCC(C)(C)C1CC2 (some centres undefined) | -10%
Cc1nn(-c2ccc(N3CCOCC3)nn2)c(C)c1CCC(=O)NCc1ccc(OC(C)C)cc1 | -15%
Oc1ccc2c(c1)C13CCCC[C@H]1[C@@H](C2)N(CC1CCC1)CC3 | -3%
CC(=O)N1CCc2c(sc3c2c(=O)n(CCc2ccccc2)c(=O)n3Cc2ccc(F)cc2)C1 | -7%
CS(=O)(=O)c1ccccc1N1CCN(c2nc3c(c(=O)[nH]2)CSCC3)CC1 | -21%
Cc1ccc(C2=NC3(CCN(C(=O)c4ccc(C)c(C)c4)CC3)ON2)cc1 | 5%
Cc1cc(-c2noc(CNC(=O)c3cc(-c4ccco4)[nH]n3)n2)no1 | 5µM*
COc1cccc([S+](=O)([O-])N2CCC23Cc2ccccc2NC3=O)c1 (centres undefined) | -1%
CCc1ccc(NC(=O)CC2C(=O)NCCN2C(=O)c2ccc(F)cc2)cc1 (centres undefined) | -10%
CC(C)c1ccc(CC(=O)N2CCCc3ncc(C(=O)NCCc4c[nH]c5ccccc45)cc32)cc1 | -14%
CN(C)Cc1cc(CC2(NCc3cccc4c3OCO4)COC2)no1 | -1%[39.2 µM]
O=C(N1Cc2ccc(Nc3nn4c(=O)c5ccccc5nc4s3)cc2C1)C(F)(F)F | -1%
C=CCCC(CN1CCCC1)Oc1ccc(C(=O)NCC)cn1 (centres undefined) | i
O=C(NC[C@H]1O[C@@H](CO)[C@@H](O)[C@H]1N1CCOCC1)c1cccc(F)c1 | 5%[39.2 µM]
CN(C)c1ccc(CNC(=O)CN2CCSc3ccc(S(=O)(=O)N(C)C)cc32)cc1 | u
CNS(=O)(=O)c1cc(-c2nnc(Nc3cc(C)ccc3C)c3ccccc23)ccc1C | -26%
Cc1ccc(S(=O)(=O)NCC2CCC(C(=O)NCc3ccc(F)cc3)CC2)cc1 (centres undefined) | -22%
Cc1cccc(-c2nn3c(=O)cc(CN4CCN(C(=O)/C=C/c5ccccc5)CC4)nc3s2)c1 | -17%
CN(C)c1ncc(C(=O)NCc2ccccc2Cl)cn1 | -8%
CC1(C)C(O)CCC2(C)C1C(O)C=C1COC(=O)C12O (centres undefined) | -13%
C[C@@H]1CCC/C=C/[C@H]2CC(=O)C[C@@H]2[C@@H](O)/C=C/C(=O)O1 | u
COc1ccc(NC(=O)c2ccco2)cc1NC(=O)COc1ccc(Cl)c(C)c1 | -28%
Cc1ccc(-c2cnn(CC(=O)N(C)C(C)c3ccco3)c(=O)c2)cc1 (centres undefined) | 5%
O=C(NC1CCCc2c1cnn2-c1ccc(F)cc1F)c1cccs1 (centres undefined) | -4%&1%
Fc1ccccc1-c1noc(NCCc2ccc(Cl)cc2)n1 | 2%
CC#C[C@]1(O)CC[C@H]2[C@@H]3CCC4=CC(=O)CCC4=C3[C@@H](c3ccc(N(C)C)cc3)C[C@@]21C | -2%
Cc1c(-c2ccc3c(c2)OCO3)oc2ccc(C(O)C(C)O)cc12 (centres undefined) | 23%
CN1CCC(N2CC[C@H](c3nc4ccccc4[nH]3)C2)CC1 | i
COc1cc(C[C@@H]2NCCc3cc(O)c(O)cc32)cc(OC)c1OC | -13%
O=C(CN1C(=O)C2CCCCN2c2ccc(C(=O)N3CCCC3)cc21)NCc1ccccc1F (centres undefined) | -31%
O=C(O)[C@H](O)[C@@H](O)[C@H](O[C@@H]1O[C@H](CO)[C@H](O)[C@H](O)[C@H]1O)[C@H](O)CO | -23%
Cn1nc(-c2cccs2)cc1[C@H]1CN2CC[C@H]1C[C@@H]2CNC(=O)C1CCCCC1 | 3%[39.2 µM]
O=C(CCCCCCNC(=O)c1cnc(N(c2ccccc2)c2ccccc2)nc1)NO | u
CCn1c(C(=O)N2CCCC(C(=O)NCCCOC)C2)cc2sccc21 (centres undefined) | -17%
CCC[C@@H](C(=O)O)N1C(=O)[C@H]2C[C@@H]3CCCC[C@@H]3N2C(=O)[C@@H]1C | -16%
O=C(Nc1ccccc1C(F)(F)F)N1CCC(CN2CCc3ccccc3C2)CC1 | -13%
CCCCNC(=O)CN1C(=O)COc2ccc(S(=O)(=O)N3CCCCCC3)cc21 | -13%
O=C(c1cccs1)N1CCC(N(C(=O)NCCc2ccccc2)C2CCOCC2)CC1 | -4%
Cc1ccc(NC(=O)N2CCc3c(c4ccccc4n3CC3CC3)C2)cc1 | -10%
COc1ccc(C2Nc3ccccc3C(=O)N2Cc2ccccc2)cc1COc1ccc(NC(=O)c2ccccc2)cc1 (centres undefined) | -11%
COc1cccc2cc(-c3nnc(Nc4ccccc4C)s3)c(=O)oc12 | -13%
O=[N+]([O-])c1cccc2[nH]c(CNc3nc(N4CCOCC4)nc4c3ncn4-c3ccsc3)nc12 | 58%[activator]
CC(=O)OC(C)(C)/C=C/C(=O)[C@](C)(O)C1[C@H](O)C[C@@]2(C)[C@@H]3CC=C4[C@@H](C[C@H](O[C@@H]5O[C@H](CO)[C@@H](O)[C@H](O)[C@H]5O)C(=O)C4(C)C)[C@]3(C)C(=O)C[C@]12C (some centres undefined) | -9%[10 µM]
Cc1ccc(NC(=O)CN2C(=O)c3ccccc3Sc3ccc(C(=O)N4CCOCC4)cc32)cc1C | 5%
Cc1nc(SCC(=O)c2ccc(F)cc2)n[nH]1 | -23%

Following part.
SMILES | nsP2pro inh
COc1ccccc1OC(C)C(=O)Nc1ccc(-c2nc3ccccc3s2)cc1 (centres undefined) | -14%
O=C([C@@H]1CNC[C@H](C(=O)N2CCN(c3nccs3)CC2)C1)N1CCCC1 | i
COCC1=C(C(=O)O)N2C(=O)[C@@H](NC(=O)/C(=N\OC)c3csc(N)n3)[C@H]2SC1 | -11%
C=CCN1C[C@H](C)N([C@H](c2ccc(C(=O)N(CC)CC)cc2)c2cccc(OC)c2)C[C@H]1C | 0%[5.1 µM]
O=C1NS(=O)(=O)c2cc3c(cc21)C(=O)NS3(=O)=O | 4%
CC(C)C1NC(=O)CNC(=O)C2CCCN2C(=O)C(Cc2c[nH]c3ccccc23)NC(=O)CNC(=O)C(Cc2ccc(O)cc2)NC(=O)CNC1=O (centres undefined) | u
COc1cccc(NC(=O)Cn2c(=O)n(CC(=O)NCc3ccc(C)cc3)c(=O)c3sccc32)c1 | -16%
O[C@@H]1CN(CC2CC2)CC[C@H]1N1CCN(c2ccccc2F)CC1 | 4%
Brc1ccc(-c2csc(N3CCOCC3)n2)cc1 | 0%
O=C(Nc1nc(-c2ccccc2)cs1)c1ccncc1NS(=O)(=O)c1cccc(Cl)c1 | i
COc1ccc(-c2ncc(CN3CCCC4(C3)CN(C)C(=O)O4)cn2)cc1 (centres undefined) | -8%
CC(C)(C)OC(=O)N1CCC(C(=O)Nc2ccc([S+](=O)([O-])Nc3nccs3)cc2)CC1 | 1%
Nc1cccc(-c2cc3c(Oc4cccc(O)c4)ncnc3[nH]2)c1 | 3%
Cc1nn(-c2ccccc2)c2c1C(C1CC1)N(C1CN(C(=O)Nc3ccccc3)C1)C2=O (centres undefined) | i
CCCCN(C)CCCNC(=O)C1CCN(c2nc3ccc(CC)cc3s2)CC1 | 16%
FC(F)(F)c1ccc(CNc2ccc(Cc3c[nH]c4ncc(Cl)cc34)cn2)cn1 | -3%
Cc1ccc(C)c(CN2C(=O)c3ccccc3S(=O)(=O)c3ccc(C(=O)N4CCN(C)CC4)cc32)c1 | 0%
CC(C)(C)c1ccc(C(=O)Nc2ccc(NC(=O)c3ccc(Cl)c(Cl)c3)cc2)cc1 | -13%
CC1=CC2=C(C)C(=O)C(C)(O)C(O)C2CO1 (centres undefined) | -4%
Cc1ccc(Cl)cc1N1CCN(c2ncnc3onc(C)c23)CC1 | -6%
CC(=O)N1CCCN(Cc2nnc(C(=O)N3CCC[C@@H]3c3cccc(F)c3)n2-c2cccnc2)CC1 | -1%
COc1cc2c(cc1CCc1ccccc1)N(C(=O)C(C)C)CC21CCN(C(C)=O)CC1 | i
Cc1nc(NC2CCCCC2)c2nc(-c3ccccc3)n(CC3CCN(C)CC3)c2n1 | -6%

Screening results: PubChem BioAssay, National Center for Advancing Translational Sciences (NCATS)
